Source: PubChem
StopGo reporter – lowers the luciferase signal of an FMDV 2A StopGo reporter; human cells with a luciferase reporter of 2A StopGo recoding; control for the full effect not named in the record; Potency, µM (top dose mostly 57.9 µM), without a hit: at the top dose signal change, negative = less light; 410,000 compounds, 1.2% hits; active = well fitted falling curve with a large enough effect; inconclusive = small, poorly fitted or top-dose-only effect; inactive = no such curve, though single readings can be large or run the other way; tested in HEK293T cells; also: % is scaled to controls: 0 for no effect and ±100 for the full control effect; nearly all actives have a fitted effect of over 45% in size; luciferase light after 4 h
Cruzain noTriton – inhibitors of Trypanosoma cruzi cruzain without detergent | P25779 | purified cruzain, Z-FR-AMC fluorescence, no detergent | Potency, µM, without a hit: max response, negative = inhibition, actives largely listed as inhibitors | 200,000 compounds, 2.3% hits | AID 1476;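 also: plate controls were enzyme without inhibitor for no effect and buffer without enzyme for full effect; nearly all actives have a fitted effect of over 40% in size; top concentration of the series not given in the record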
Target sequence (P25779 123-467 limits assumed): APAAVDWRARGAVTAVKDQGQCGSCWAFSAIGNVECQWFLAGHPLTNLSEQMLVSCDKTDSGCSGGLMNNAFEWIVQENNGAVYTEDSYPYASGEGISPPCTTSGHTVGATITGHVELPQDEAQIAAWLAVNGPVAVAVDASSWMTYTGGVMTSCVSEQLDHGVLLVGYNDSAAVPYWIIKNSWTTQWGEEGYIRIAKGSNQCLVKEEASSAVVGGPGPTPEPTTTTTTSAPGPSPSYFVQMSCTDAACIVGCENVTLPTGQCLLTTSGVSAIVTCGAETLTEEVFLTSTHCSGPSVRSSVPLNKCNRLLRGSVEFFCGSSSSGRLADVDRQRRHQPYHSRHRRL
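Purified cruzain at 1.5 nM, pre-incubated 15 min with compound at room temperature in 100 mM sodium acetate pH 5.5, 5 mM DTT, 0.00005% Triton X-100. Reaction started with 2 uM Z-FR-AMC; AMC fluorescence increase over 60 s gives rate.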
MARV entry inh – inhibitors of Marburg virus binding or cell entry; Marburg virus pseudotyped entry inhibition, cell reporter; control for the full effect not named in the record; about a third of the inactives were read at about 46 µM; Potency, µM (titrated, usually from 37.8 µM), without a hit: at the top dose activity change, negative = inhibition, usual class: inhibitors; 300,000 compounds, 1.8% hits; active = well fitted inhibition curve with a large enough effect; inconclusive = small, poorly fitted or top-dose-only effect, or effect the other way; inactive = flat fitted curve, though single readings scatter; tested in HEK293 cells; about a fifth of its hits are not listed in these tables; also: % is scaled to controls: 0 for no effect and ±100 for the full control effect; luciferase read-out
NS1 inh – inhibitors of influenza NS1 protein function; AID 2326; S. cerevisiae slowed by influenza A NS1, growth recovery by OD600; 270,000 compounds, 0.4% hits; Potency, µM (highest dose often 46.1 µM), for inactives: at the top dose activity, positive = more growth; active means well fitted rising curve with a large enough effect; inconclusive means small, poorly fitted or top-dose-only effect; inactive means no such curve, though single readings can be large or run the other way; also: nearly all actives have a fitted effect of over 50% in size
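A cell-based growth assay was used: compounds that relieve NS1-induced slow growth of budding yeast raise OD600. Assay medium was yeast nitrogen base with ammonium sulphate and -URA supplement, pH 6.0, with 2% galactose.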
RE007 growth inh – less growth of the S. pombe RE007 Vpr strain; S. pombe RE007 Vpr strain, BacTiter-Glo ATP luminescence, 24 h; control for the full effect not named in the record; Potency, µM (titrated, usually from 92.2 µM), without a hit: top-dose activity change, negative = less growth; 360,000 compounds, 0.21% hits; AID 651644; active = well fitted falling curve with a large enough effect; inconclusive = small, poorly fitted or top-dose-only effect; inactive = no such curve, though single readings can be large or run the other way;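 also: % is scaled to controls: 0 for no effect and ±100 for the full control effect; nearly all actives have a fitted effect of over 50% in size; the assay follows cell death caused by Vpr and the record does not say whether a fall means rescue or toxicity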
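Fission yeast strain RE007, carrying one chromosomally integrated HIV-1 vpr copy, was seeded at OD 0.01 in PMG+AL medium with 23 nL pinned compound. After 24 h at 30 °C and 99% humidity, viability was read by BacTiter-Glo luminescence.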
SARS PLpro yeast – blocks SARS-CoV papain-like protease in a yeast assay; Potency, µM (doses to about 32.9 µM), for the others: top-dose activity, positive = growth rescue; 330,000 compounds, 0.19% hits; AID 485353; S. cerevisiae expressing SARS-CoV PLpro, growth rescue; control for the full effect not named in the record; active means well fitted rising curve with a large enough effect; inconclusive means small, poorly fitted or top-dose-only effect; inactive means no such curve, though single readings can be large or run the other way; also: 0% is about no effect; nearly all actives have a fitted effect of over 55% in size; growth read by luminescence after 48 h
Cruzain Triton – blocks cruzain activity in presence of Triton detergent; P25779; purified cruzain, Z-FR-AMC fluorescence, 0.01% Triton; Potency, µM, for the others: max response, negative = inhibition, hits mostly inhibitors; 200,000 compounds, 0.43% hits; AID 1478;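 also: plate controls were neutral wells for no effect and buffer without enzyme for full effect; nearly all actives have a fitted effect of over 40% in size; top concentration of the series not given in the record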
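Compounds were screened in titration against cruzain (1.5 nM) with 0.01% Triton X-100 to counter colloidal aggregation. Activity was the AMC fluorescence increase over 60 s after adding 2 uM Z-FR-AMC at pH 5.5.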
Lassa entry inh – inhibitors of Lassa virus binding or cell entry. Lassa virus pseudotype entry inhibition, cell reporter; control for the full effect not named in the record. Potency, µM (series often up to 37.9 µM), without a hit: at the highest dose activity change, negative = inhibition, actives largely listed as inhibitors. 300,000 compounds, 1.2% hits. AID 540256; active means well fitted inhibition curve with a large enough effect; inconclusive means small, poorly fitted or top-dose-only effect, or effect the other way; inactive means flat fitted curve, though single readings scatter; tested in HEK293 cells; also: % is scaled to controls: 0 for no effect and ±100 for the full control effect; nearly all actives have a fitted effect of over 50% in size; luciferase read-out
* hit, by the source's call; ? = inconclusive; · = not tested or not shown; & = joins results of further samples; [ ] = remark or other dose. Unless noted, calls follow the shape of the dose curve; as a rule, active = well fitted curve in the direction sought with a large enough effect; inconclusive = small, poorly fitted or top-dose-only effect, or another doubt; inactive = no such curve, though single readings can be large; an effect the other way counts as inactive or inconclusive. Potency is read from the fitted curve at half-maximal effect.

structure,NS1 inh,Cruzain Triton,Cruzain noTriton,RE007 growth inh,SARS PLpro yeast,StopGo reporter,MARV entry inh,Lassa entry inh
c1cc(C2CCCCC2)ccc1Oc1nc(N2CCOCC2)nc(N2CCOCC2)n1,-8%,1.6%,-4%,1%,11%,-17%,-2%,-4%
Cc1nc(SCC(=O)NCc2ccc3c(c2)OCO3)c(C#N)c2c1CCCC2,-101%,-4.3%,-6%,5%,-3%,-7%,19%,7%
COc1ccc(C(=O)Nc2ccccc2SCc2cc(=O)c3cccc(C)c3[nH]2)cc1,·,1.4%,-10%,·,·,82%[activator],·,-6%[46.1 µM]
CCOC(=O)c1c(Cc2ccc(Cl)cc2)c[nH]c1C,-8%,-11%,-5%,-2%,-3%,15%,?,-25%[46.1 µM]
NC(N)=NOCC[C@H](N)C(=O)O,-40%,8.9%&-0.2%&-4.2%,5%&1%&-1%,·,·,-3%,?,?
COc1ccccc1N1CCN(C2=Nc3cccc4cccc2c34)CC1,·,·,·,-7%,2%,-32%,6.3µM*,?
N#Cc1c(-c2ccccc2)cc(-c2ccccc2)nc1SCC(=O)NCC(=O)O,7%,·,·,4%,1%,-4%,8%[46.1 µM],-1%
CCc1ccc(NS(=O)(=O)c2ccc3oc(=O)ccc3c2)cc1,-31%,·,·,7%,0%,20%,?,-22%
COCCCNC(=S)N/N=C/c1cccc(OC)c1O,1%,·,·,8%,0%,35%[activator],3%[46.1 µM],-6%
Cc1ccc(-n2c(SCC(=O)N3CCCCC3)nc(O)cc2=O)cc1,?,·,·,-3%,2%,0%,6%,13%
COC(=O)c1ccccc1NS(=O)(=O)c1ccc(Cl)nc1,·,·,·,-6%,8%,-5%,-2%[46.1 µM],-4%[46.1 µM]
COc1cc(C2Nc3cccc4cccc(c34)N2)cc(OC)c1OC(C)=O,0%,-15%,-15%,-25%,3%,-20%,-24%,-7%
C/C=C(\C)C(=O)Nc1cccc(C2=NOC3(C2)C[C@H](C(N)=O)N(C(=O)c2cc([N+](=O)[O-])cc([N+](=O)[O-])c2)C3)c1 (some centres undefined),-3%,·,·,-10%,3%,-16%,·,·
Cc1cccn2c(=O)c3cc(C(=O)NCCN4CCOCC4)c(=N)n(CCCN4CCOCC4)c3nc12,-7%,·,·,-12%,1%,-2%,7.9µM*,?
O=C(O)/C(=C\c1ccccc1OC(F)F)Sc1nnc(-c2ccc(F)cc2)o1,·,·,·,23%,-5%,-16%,?,-28%[46.1 µM]
N#CCOc1nc(N2CCCCC2)nc(N2CCCCC2)n1,-43%,·,·,1%,0%,?,·,·
COc1ccc(OC)c(-n2c(SCC(=O)Nc3cccc(S(N)(=O)=O)c3)nc3ccccc3c2=O)c1,6%,·,·,3%,0%,-11%,?,8%
COc1ccc(CC(=O)Nc2ccc(-c3ccc4nnc(C)n4n3)cc2)cc1OC,-7%,·,·,6%,1%,-15%,-5%[46.1 µM],-11%[46.1 µM]
CCOC(=O)[C@@H]1[C@H]2COc3ccc(Br)cc3[C@H]2N2C(=O)N(c3ccc(C)cc3)C(=O)[C@]12C,23%,·,·,12%,-1%,-15%,·,·
COc1ccc2ccccc2c1/C=N/NC(=O)c1cccc([N+](=O)[O-])c1,-1%,·,·,-7%,0%,2%,-1%[46.1 µM],-2%[46.1 µM]
CC(NC(=O)CCC(=O)Nc1ccccc1O)c1ccccc1 (centres undefined),·,·,·,0%,·,-2%,-5%[46.1 µM],-14%
CN(C1CCCCC1)S(=O)(=O)c1ccc2c(c1)c(=O)c(C(=O)NCCCN1CCCC1)cn2C,-1%,1.6%,12%,-4%,-8%,9%,-4%,·
CCCN(CCC)CC(O)COc1ccc([N+](=O)[O-])cc1 (centres undefined),1%,5.4%,4%,-2%,10%,-6%,14%[46.1 µM],5%
O=C(O)c1cnn2c(C(F)(F)F)cc(-c3ccco3)nc12,-3%,-0.9%,-8%,16%,-1%,-18%,?,-5%
COc1ccc2c(CC(=O)NC(Cc3ccc(Cl)cc3)C(=O)O)cc(=O)oc2c1C (centres undefined),2%,·,·,0%,-1%,6%,·,·
COc1cccc(NC(=O)Cn2cc(C(=O)c3ccco3)c3ccccc32)c1,·,-13%,?,·,·,-7%,?,9%[46.1 µM]
COc1ccc(CCNC(=O)CN(c2ccccc2OC)S(=O)(=O)c2ccc(C)cc2)cc1,·,-14%,0%,8%,0%,?,?,7%&-19%[46.1 µM]
CCOC(=O)/C=C(C)\C=C\c1c[nH]c2ccccc12,-15%,·,·,-1%,-2%,18%,6%,0%
CNC(=O)c1ccc(-n2cccn2)nc1,·,·,·,3%,1%,11%,9%[46.1 µM],16%
CC(=O)Nc1ccc(S(=O)(=O)N(C)CC(=O)OCC(=O)NC(C)C23CC4CC(CC(C4)C2)C3)cc1 (centres undefined),-9%,0.6%,?,2%,?,5%,24%,-10%
CCOC(CNC(=O)c1ccc2c(c1)nc(C)n2-c1cccc(F)c1)OCC,-5%,-0.1%,7%,8%,-13%,-3%,-2%,35%[14.3 µM]
Cc1nc2oc3ccccc3c(=O)c2c(=O)n1Cc1ccccc1,-11%,-1.3%,15%,7%,-4%,0%,8%,-1%
COc1ccc(Cc2nnc(SCC(=O)N(c3ccccc3)C(C)C)n(N)c2=O)cc1,·,·,·,6%,-3%,-19%,?,?
CCc1c(C)sc2c1CCN(C(=O)Nc1ccccc1C(=O)OC)C2c1ccc(OC)cc1 (centres undefined),·,-0.3%,?,·,·,-23%,·,3%[46.1 µM]
CCOC(=O)c1c(C)[nH]c(C)c1S(=O)(=O)N1CCC(C(=O)Nc2ccc(C)cn2)CC1,·,0.2%,-10%,·,·,-15%,·,27%[46.1 µM]
O=C(c1ccccc1)c1ccc(C(=O)N2CCN(c3ccccc3)CC2)cc1,-30%,·,·,-3%,1%,0%,10%,7%
O=C(CN1c2cccc3cccc(c23)S1(=O)=O)Nc1ccc(S(=O)(=O)N2CCOCC2)cc1,?,-8.1%,2%,-14%,20%,-27%,-7%,5%
COc1cc(OC)c(-c2nc3c[n+](CC(=O)c4ccccc4)ccc3n2C)cc1OC,17%,-12%,-3%,-13%,-1%,·,13%,-3%
O=C(Cc1cccc2ccccc12)Nc1c(F)cccc1F,4%,·,·,13%,1%,11%,2%[46.1 µM],-7%[46.1 µM]
O=C(CN1C(=O)CSC1=O)N1CCCC(Nc2ccc(F)cc2)C1 (centres undefined),4%,·,·,5%,0%,-27%,-1%,-4%
CCn1c(C(=O)N2CCCC(C(=O)N3CCN(c4ccccc4)CC3)C2)cc2sccc21 (centres undefined),·,-5.0%,?,·,·,-21%,·,·
COc1cccc(-c2cc(C(=O)Nc3cc(OC)c(OC)c(OC)c3)on2)c1,·,-6.6%,0%,·,·,?,·,-9%[46.1 µM]
NC(N)=NS(=O)(=O)c1ccc(NC(=S)NC(=O)Cc2ccc(Cl)cc2)cc1,-6%,·,·,4%,4%,6%,·,·
CCCn1nc(NC(=O)CC(C)C)c2cc3ccccc3nc21,-9%,4.4%,-1%,-6%,-7%,17%,1%,-1%
c1cnc2c(c1)ncc1cscc12,9%,-5.2%,-2%,10%,6%,2%,2%,3%
COc1ccc(/C=N/NC(=O)CSc2n[nH]c(=O)[nH]c2=O)cc1,1%,-3.9%,3%,·,22%,-5%,?,15%
CC1CCN(CC(=O)Nc2cc(C(F)(F)F)ccc2Cl)CC1,-4%,0.2%,-10%,-26%,-36%,-21%,0%,3%
COc1ccc(NC(=O)N2CCN(c3cc(-c4noc(C)n4)ccc3C)CC2)c(OC)c1,·,-1.3%,?,·,·,-12%,·,-2%[46.1 µM]
COc1ccc(C(C(=O)NC(C)(C)C)N(CCc2ccc(OC)c(OC)c2)C(=O)CCC(=O)Nc2cc(C)on2)cc1 (centres undefined),-12%,·,·,-3%,0%,1%,?,-12%[46.1 µM]
Cc1cccc2c1-c1sc(C(=O)Nc3cccnc3)cc1CO2,-11%,·,·,1%,1%,22%,·,·

(next part)
structure,NS1 inh,Cruzain Triton,Cruzain noTriton,RE007 growth inh,SARS PLpro yeast,StopGo reporter,MARV entry inh,Lassa entry inh
Fc1ccc(-c2[nH]ncc2CN(CC2CCC2)CC2CCCO2)c(F)c1 (centres undefined),5%,·,·,7%,0%,0%,?,7%[46.1 µM]
Oc1nc(Nc2cccc(Cl)c2)sc1/C=C1\C=Nc2ccccc21,4%,-3.2%,?,-20%,-73%,?,?,?
CCSc1nnc(NC(=O)CSc2nnc(C)c(=O)n2N)s1,·,·,·,-7%,0%,-12%,4%,0%
Cn1cccc1Cc1nnc(SCC(=O)NC2CCCC2)n1CCc1ccccc1,?,-0.3%,-7%,-8%,-3%,29%,·,·
CC(C)(C)c1ccc(OC(=O)Nc2ccc(O)c(C(=O)O)c2)cc1,-9%&3%,-5.7%,-10%,-4%,-1%,?,·,·
C/C(N)=C(/C#N)C(=O)COC(=O)CNS(=O)(=O)c1ccc(C)cc1,5%,·,·,-2%,0%,2%,6%[46.1 µM],15%[46.1 µM]
CC(=O)c1c(C)n(-c2ccccc2)c2ccc(O)cc12,5%,-1.6%,12%,7%,-1%,-29%,14%,2%
COc1ccc(CC(=O)NNS(=O)(=O)c2cccc([N+](=O)[O-])c2)cc1OC,4%,·,·,0%,1%,6%,27%,-2%
CCc1ccccc1N1C(=O)C2CC=CCC2C1=O (centres undefined),-4%,0.5%,-6%,-3%,-1%,-24%,2%,8%
COCCNS(=O)(=O)c1ccc2c(c1)C(=O)c1cc(S(=O)(=O)NCCOC)ccc1-2,-3%,-1.2%,5%,-7%[3.69 µM],11%,7%,-1%,-8%
CC(C)(C)c1ccc(C2CC2C(=O)N/N=C\c2ccc[nH]2)cc1 (centres undefined),-2%,·,·,-8%,-3%,-19%,?,·
